PMP22 txn prim: modulators of PMP22 gene transcription in S16 Schwann cells. 43,000 compounds, 2% hits. AID 1508649. S16 Pmp22-F2sN Schwann cells (luciferase reporters placed in the Pmp22 gene), FLuc/NLuc coincidence luminescence, 24 h. Potency, µM (top dose mostly 57.5 µM), for inactives: at the highest dose activity change, negative = inhibition, most hits filed as inhibitors; active = clear falling dose curves in both reporters; inconclusive = both reporters move, but less clearly or upward; inactive = either reporter flat; the % is the NLuc reporter signal; note: % is set by controls: 0 for no effect and ±100 for the full control effect; some results filed as inactive show a strong effect at the top dose
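S16 Schwann cells carrying FLuc/NLuc coincidence reporter in the Pmp22 3' UTR treated with compound 24 h at 37C; FLuc then NLuc luminescence read sequentially by dual-luciferase reagents.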
HTT prom inh: inhibitors of huntingtin promoter activity | HEK293 HTT promoter firefly luciferase reporter (activity 0% = vehicle and -100% = no light), 24 h | Potency, µM (top dose mostly 57.5 µM), for inactives: at the top dose activity change, negative = inhibition, actives largely listed as inhibitors | 48,000 compounds, 0.93% hits | AID 1508623; active = well fitted inhibition curve with a large enough effect; inconclusive = small, poorly fitted or top-dose-only effect; inactive = no such curve, though single readings can be large or run the other way; note: nearly all actives have a fitted effect of over 50% in size
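HEK293 cells carrying firefly luciferase reporters were seeded at 2,500 per well in Opti-MEM and cultured for 24 h. They were then treated with compounds at up to 57.5 uM final for 24 h at 37 degrees C before Dual-Glo luminescence readout.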
* hit, by the source's call; [ ] = remark or other dose. Potency is the fitted concentration of half-maximal effect.

What do the screens show for `COc1ccc(S(=O)(=O)c2cn(Cc3ccccc3)c3cc(F)c(F)cc3c2=O)cc1`?
PMP22 txn prim: -0.5%; HTT prom inh: -13.4%

Results for CCc1ccc(CN(Cc2cn[nH]c2-c2ccc(OC)cc2)C(=O)Nc2ccc(Br)cc2)cc1 ?
PMP22 txn prim: inconclusive; HTT prom inh: 14.1µM*

Results for COc1ccc(CCNC(=O)CSc2nc(-c3ccc(F)cc3)cc(C(F)(F)F)n2)cc1OC ?
PMP22 txn prim: -15.6%; HTT prom inh: -11.3%

How did O=C(CCC1N=C2c3ccccc3N=C(SCc3ccc(Cl)cc3)N2C1=O)N1CCN(c2ccccc2)CC1 (stereo unspecified) do in these assays?
PMP22 txn prim: -9.3%; HTT prom inh: 3.2%

What do the screens show for `CCn1cc(C(=O)NCc2ccc(Cl)cc2)c(=O)c2cc(S(=O)(=O)N(C)C3CCCCC3)ccc21`?
PMP22 txn prim: -0.2%; HTT prom inh: inconclusive

How did CCN(CC)CCNC(=O)Cn1cnc2sc(C)c(S(=O)(=O)N3CCC(C)CC3)c2c1=O do in these assays?
PMP22 txn prim: -12.4%; HTT prom inh: -10.7%

What do the screens show for `CNC(=O)c1c(NC(=O)c2cc(=O)c3cc(C)c(C)cc3o2)sc2c1CCCC2`?
PMP22 txn prim: -40.8%; HTT prom inh: -13.7%

How did COc1cc(NC(=O)CN(c2cc(C)cc(C)c2)S(=O)(=O)c2c(C)[nH]c(=O)[nH]c2=O)cc(OC)c1 do in these assays?
PMP22 txn prim: 8.9%; HTT prom inh: -22.4%[11.5 µM]

Results for CC(=O)c1c(C)n(S(=O)(=O)c2ccc(Cl)cc2)c2ccc(NS(=O)(=O)c3ccc(Cl)cc3)cc12 ?
PMP22 txn prim: inconclusive; HTT prom inh: inconclusive

Results for CCOC(=O)c1cccc(NC(=O)CN2C(=O)c3ccccc3Sc3ncccc32)c1 ?
PMP22 txn prim: -49.2%; HTT prom inh: -2.4%

Results for CCCCN(C)CCNC(=O)CN1C(=O)CSc2ccc(S(=O)(=O)N3CCCCC3)cc21 ?
PMP22 txn prim: -27.5%; HTT prom inh: -1.2%

Results for CC1=C(C(=O)Nc2c(C)cc(C)cc2C)C2(CCN(C(C)C)CC2)OC1=O ?
PMP22 txn prim: -31.9%; HTT prom inh: -22.5%

How did CCC(=O)N1c2ccccc2CC1C(=O)NCCN1CCN(c2cccc(Cl)c2)CC1 (stereo unspecified) do in these assays?
PMP22 txn prim: inconclusive; HTT prom inh: -3.8%

How did O=C(NCc1ccccc1)C(=O)NCC(c1ccc2c(c1)OCO2)N1CCOCC1 (stereo unspecified) do in these assays?
PMP22 txn prim: -9.8%; HTT prom inh: 11.4%

How did COc1ccc(-c2nc3c(C#N)c[nH]n3c2NC2CCCC2)c(OC)c1 do in these assays?
PMP22 txn prim: inconclusive; HTT prom inh: -22.7%

What do the screens show for `COc1ccc(N2C(N)=C(C#N)C(c3cc(CN4CCOCC4)cs3)C3=C2CCCC3=O)cc1` (stereo unspecified)?
PMP22 txn prim: inconclusive; HTT prom inh: -6.1%

What do the screens show for `Cc1ccc(CNC(=O)Cn2c(=O)n(-c3ccc(Cl)cc3)c(=O)c3c(C)c(C)sc32)cc1`?
PMP22 txn prim: -0.5%; HTT prom inh: -6.6%

Results for COc1cc2ncnc(-n3nc(-c4ccccn4)nc3N)c2cc1OC ?
HTT prom inh: inconclusive

Results for COc1ccc(NC(=O)Cn2cc(C(=O)c3ccncc3)c(=O)c3cc(C)ccc32)cc1Cl ?
PMP22 txn prim: 7.9%; HTT prom inh: -6.4%

What do the screens show for `COc1ccccc1NC(=O)CSc1oc(-c2cccs2)nc1S(=O)(=O)c1ccc(C)cc1`?
PMP22 txn prim: -21.6%; HTT prom inh: -25.2%

How did COc1ccc(-n2cnc3cc(C(=O)NCCC4=CCCCC4)ccc32)cc1 do in these assays?
PMP22 txn prim: 6.5%; HTT prom inh: -7.1%

What do the screens show for `COC(=O)c1ccccc1NC(=O)CSc1nc(C)c(Cl)c(C)c1C#N`?
PMP22 txn prim: -9.8%; HTT prom inh: -14.1%

Results for CC(C)c1ccc(S(=O)(=O)c2cnc(SCC(=O)Nc3ccc4c(c3)OCCO4)[nH]c2=O)cc1 ?
PMP22 txn prim: 4.4%; HTT prom inh: -5.7%

Results for CC(=O)c1cccc(NC(=O)[C@H](Cc2ccccc2)N2Cc3ccccc3C2=O)c1 ?
PMP22 txn prim: -46.3%; HTT prom inh: -3.7%

What do the screens show for `COCCn1c(SCC(=O)c2ccc(C)cc2)nc2cc(C(=O)NC3CCCC3)ccc2c1=O`?
PMP22 txn prim: inconclusive; HTT prom inh: -3.2%

What do the screens show for `c1cc(-c2sc(-c3ccncc3)c(-c3ccncc3)c2-c2ccncc2)ccn1`?
HTT prom inh: 5.2%

How did Nc1nc2ccccc2n1Cc1ccc(F)cc1 do in these assays?
HTT prom inh: -15.7%

Results for COc1cccc2cc(S(=O)(=O)c3ccc(F)c(C)c3)c(=O)oc12 ?
PMP22 txn prim: -22.3%; HTT prom inh: -11.5%

Results for Cc1cccc(C)c1NC(=O)c1cc2sccc2n1Cc1ccc(F)cc1 ?
PMP22 txn prim: inconclusive; HTT prom inh: -10.8%

How did CCOc1ccc2nc(NC(=O)c3nc(SCc4ccccc4C)ncc3Cl)sc2c1 do in these assays?
PMP22 txn prim: inconclusive; HTT prom inh: -1.6%

How did Cc1ccc(Cl)cc1NC(=O)c1cc(CN2CCCC2)on1 do in these assays?
PMP22 txn prim: 8.2%; HTT prom inh: 21.7%

How did CSCCC(NS(=O)(=O)c1ccc2c(c1)oc(=O)n2C)C(=O)NCCc1ccc(C)cc1 (stereo unspecified) do in these assays?
PMP22 txn prim: -2.7%; HTT prom inh: -10.3%

Results for CC(=O)c1ccc(NC(=O)c2nc(-c3ccccc3)n(-c3ccc(Cl)cc3)n2)cc1 ?
PMP22 txn prim: -9.7%; HTT prom inh: -12.7%

Results for O=C(c1cc(-c2ccc(Cl)cc2)n[nH]1)N1CCN(S(=O)(=O)c2ccc(Br)s2)CC1 ?
PMP22 txn prim: inconclusive; HTT prom inh: inconclusive

Results for CC(=O)NCc1nc2cccnc2n1Cc1ccccc1 ?
PMP22 txn prim: -4.2%; HTT prom inh: -5.2%

What do the screens show for `CCc1ccc(NC(=O)CSc2nc(C)c(C(=O)Nc3ccc(Cl)cc3)c(-c3ccc(OC)cc3)c2C#N)cc1`?
PMP22 txn prim: -13.7%; HTT prom inh: -12.2%

How did COc1ccc(-c2nc(C)c(CCNS(=O)(=O)c3ccc(F)cc3)s2)cc1OC do in these assays?
PMP22 txn prim: -109.5%; HTT prom inh: -19.7%

How did COc1ccc(NC(=O)CSc2nc3c([nH]c4ccccc43)c(=O)n2-c2ccccc2)c(OC)c1 do in these assays?
PMP22 txn prim: inconclusive; HTT prom inh: inconclusive

What do the screens show for `Cc1c(C)n(Cc2ccccc2)c2ccc(C(=O)N3CCN(c4ccccc4F)CC3)cc12`?
PMP22 txn prim: -10.8%; HTT prom inh: -0.5%

How did COc1ccccc1CNC(=O)c1ccc(CSc2nc3ccncc3n2Cc2cccc(F)c2)cc1 do in these assays?
PMP22 txn prim: inconclusive; HTT prom inh: -29.9%

Grouped by structure: those above containing an NH in an aromatic ring (6)
Results for CCc1ccc(CN(Cc2cn[nH]c2-c2ccc(OC)cc2)C(=O)Nc2ccc(Br)cc2)cc1 ?
PMP22 txn prim: inconclusive; HTT prom inh: 14.1µM*

How did COc1cc(NC(=O)CN(c2cc(C)cc(C)c2)S(=O)(=O)c2c(C)[nH]c(=O)[nH]c2=O)cc(OC)c1 do in these assays?
PMP22 txn prim: 8.9%; HTT prom inh: -22.4%[11.5 µM]

How did COc1ccc(-c2nc3c(C#N)c[nH]n3c2NC2CCCC2)c(OC)c1 do in these assays?
PMP22 txn prim: inconclusive; HTT prom inh: -22.7%

Results for CC(C)c1ccc(S(=O)(=O)c2cnc(SCC(=O)Nc3ccc4c(c3)OCCO4)[nH]c2=O)cc1 ?
PMP22 txn prim: 4.4%; HTT prom inh: -5.7%

Results for O=C(c1cc(-c2ccc(Cl)cc2)n[nH]1)N1CCN(S(=O)(=O)c2ccc(Br)s2)CC1 ?
PMP22 txn prim: inconclusive; HTT prom inh: inconclusive

How did COc1ccc(NC(=O)CSc2nc3c([nH]c4ccccc43)c(=O)n2-c2ccccc2)c(OC)c1 do in these assays?
PMP22 txn prim: inconclusive; HTT prom inh: inconclusive

Following part
Results for Cc1ccc2ncc(C(=O)c3ccc(C)c(C)c3)c(S(=O)(=O)c3ccc(F)cc3)c2c1 ?
PMP22 txn prim: inconclusive; HTT prom inh: -25.7%

What do the screens show for `O=C(CCC1N=C2c3ccccc3N=C(SCC(=O)Nc3ccc(F)cc3)N2C1=O)NCc1ccco1` (stereo unspecified)?
PMP22 txn prim: -11.4%; HTT prom inh: -2.9%

What do the screens show for `COc1cccc(-c2nc(S(=O)(=O)c3ccc(C)cc3)c(N3CCCCC3)o2)c1`?
PMP22 txn prim: inconclusive; HTT prom inh: -5.6%

What do the screens show for `Oc1c(C(c2ccccc2Cl)N2CCC(O)CC2)sc2nc(-c3ccco3)nn12` (stereo unspecified)?
PMP22 txn prim: 7.8%; HTT prom inh: 12.8%

How did COc1ccccc1C(=O)c1cn(CC(=O)Nc2ccccc2F)c2nc(C)ccc2c1=O do in these assays?
PMP22 txn prim: -3.5%; HTT prom inh: 2.0%

How did COc1ccc(-n2c(C)c(C(C)=O)c3cc(OC(=O)c4ccc(C)cc4)ccc32)cc1 do in these assays?
PMP22 txn prim: inconclusive; HTT prom inh: -1.7%

What do the screens show for `Cc1ccc(Cc2nc3ccccc3nc2SCC(=O)N2CCCCC2C)cc1` (stereo unspecified)?
PMP22 txn prim: inconclusive; HTT prom inh: 28.2µM*

Results for CCOC(=O)c1c(C)n(-c2ccccc2)c2ccc(OC(=O)c3cccc(C)c3)cc12 ?
PMP22 txn prim: -27.3%; HTT prom inh: -18.9%[11.5 µM]

Results for CCc1ccccc1NC(=O)Cc1cn(C)c2ccccc12 ?
PMP22 txn prim: -23.8%; HTT prom inh: -9.5%

Results for CCOC(=O)Cn1c(=O)oc2cc(S(=O)(=O)N3CCN(c4ccc(F)cc4)CC3)ccc21 ?
PMP22 txn prim: -27.9%; HTT prom inh: -13.1%

What do the screens show for `CC1CCC(NC(=O)Cn2ncc3c4ccccc4n(Cc4ccc(F)cc4)c3c2=O)CC1` (stereo unspecified)?
PMP22 txn prim: -6.1%; HTT prom inh: -9.4%

Results for COc1ccc(OC)c(NC(=O)CN2C(=O)c3ccccc3Sc3ccc(C(=O)N4CCCC4)cc32)c1 ?
PMP22 txn prim: inconclusive; HTT prom inh: 0.3%

How did CCOc1ccc(CNC(=O)c2ccc3c(c2)N(Cc2ccccc2)CCS3)cc1 do in these assays?
PMP22 txn prim: -28.2%; HTT prom inh: -20.5%

Results for CCc1ccc(-c2cc(C)no2)cc1S(=O)(=O)Nc1cc(OC)c(OC)c(OC)c1 ?
PMP22 txn prim: 0.1%; HTT prom inh: inconclusive

How did CCOc1ccc(C(NC(=O)c2cc(OC)c(OC)c(OC)c2)c2cc(Cl)c3cccnc3c2O)cc1 (stereo unspecified) do in these assays?
PMP22 txn prim: inconclusive; HTT prom inh: 3.55µM*

Results for COc1cc(Nc2nc(SCc3ccccc3F)nc3ccccc23)cc(OC)c1 ?
PMP22 txn prim: inconclusive; HTT prom inh: -24.4%

How did COc1ccc(CNC(=O)CN(c2ccc(C(C)C)cc2)S(=O)(=O)c2c(C)nn(C)c2C)cc1 do in these assays?
PMP22 txn prim: -23.2%; HTT prom inh: -21.0%

How did Cc1ccc2oc(C(=O)Nc3ccc(S(=O)(=O)N4CCCC(C)C4)cc3)cc(=O)c2c1 (stereo unspecified) do in these assays?
PMP22 txn prim: 2.6%; HTT prom inh: -5.3%

How did COc1ccc(OC)c2sc(N3CCN(C(=O)C(C)(C)C)CC3)nc12 do in these assays?
PMP22 txn prim: -48.6%; HTT prom inh: 7.0%

Results for COc1cccc(C(=O)NCC(=O)OCc2cc(=O)n3nc(C)sc3n2)c1 ?
PMP22 txn prim: -34.2%; HTT prom inh: 10.9%

Results for Brc1ccc(-n2nc(-c3ccccc3)c3cnc4cc5c(cc4c32)OCO5)cc1 ?
PMP22 txn prim: inconclusive; HTT prom inh: -11.3%

What do the screens show for `Cc1ccc(C)c(N2CCN(S(=O)(=O)c3ccc4[nH]c5c(c4c3)CCCCC5)CC2)c1`?
PMP22 txn prim: inconclusive; HTT prom inh: -25.9%

How did Cc1ccccc1Cn1c2ccccc2c2cnn(CC(=O)NC3CCCCCC3)c(=O)c21 do in these assays?
PMP22 txn prim: 0.8%; HTT prom inh: 0.8%

What do the screens show for `COc1ccccc1NC(=O)N1CCN(c2nnc(C)c3c(C)n(-c4ccc(Cl)cc4)nc23)CC1`?
PMP22 txn prim: -18.9%; HTT prom inh: -4.7%

How did Fc1ccc(Br)cc1C1C=C(c2ccc(Br)cc2)Nc2nnnn21 (stereo unspecified) do in these assays?
PMP22 txn prim: -28.0%; HTT prom inh: inconclusive

Results for CC(=O)c1cccc(NC(=O)Cn2c(=O)c(CNc3ccc(C)cc3)cc3cc4c(cc32)OCCO4)c1 ?
PMP22 txn prim: inconclusive; HTT prom inh: -9.7%

How did O=c1c(S(=O)(=O)c2ccccc2)cn(Cc2ccc(F)cc2)c2cc(N3CCCCC3)c(F)cc12 do in these assays?
PMP22 txn prim: -4.9%; HTT prom inh: -13.7%

What do the screens show for `Cc1cccc(-c2noc(CN(C(C)C)S(=O)(=O)c3ccc(Br)cc3)n2)c1`?
PMP22 txn prim: inconclusive; HTT prom inh: inconclusive
